Bioassay records deposited in PubChem by several laboratories.
Ecoli rRNA inh – inhibits bacterial ribosomal RNA function over humanized ribosomes; E. coli WT GFP vs humanized-ribosome RFP mutants, fluorescence, 24 h; active compounds read low; DMSO median 0, no signal -100; GFP signal change (wild-type ribosome), % (test concentration not listed); 1.6% of 350,000 active;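 active = significant combined selectivity score with lowered wild-type GFP, culture density cut under 30%, mutant RFP and density less affected; inactive = any of these conditions unmet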; note: one replicate is shown; some compounds called inactive have numbers as strong as hits
AF4-AF9 inh – inhibitors of human MLL-AF4/AF9 interaction | AlphaScreen, biotin-AF4 peptide binding to FLAG-AF9 | inhibition, % at 10 µM | 0.47% of 350,000 active | P42568;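 active = every replicate reaching a set inhibition limit, whatever the replicate mean, cut at about 25% in these data; inconclusive = mean inhibition reaches that limit but some replicates miss it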;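 note: 0% = plate neutral control median and 100% = total signal loss; the record names both 10 and 1 µM as test concentration; the first replicate is given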
ALR inh – human ALR oxidase inhibition via reduced H2O2 | P55789 | purified ALR, DTT oxidation, H2O2 HRP-luminol luminescence | inhibition, % (test concentration not listed) | 3.8% of 290,000 active | AID 485317;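 active = mean and each replicate at 75% or more; inconclusive = only one of the two met; inactive = neither met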;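 note: stock transfer was 7.5 nL into about 7.5 µL; 0% = neutral wells and 100% = wells with inactivated enzyme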
Target sequence (P55789 whole entry, looked up): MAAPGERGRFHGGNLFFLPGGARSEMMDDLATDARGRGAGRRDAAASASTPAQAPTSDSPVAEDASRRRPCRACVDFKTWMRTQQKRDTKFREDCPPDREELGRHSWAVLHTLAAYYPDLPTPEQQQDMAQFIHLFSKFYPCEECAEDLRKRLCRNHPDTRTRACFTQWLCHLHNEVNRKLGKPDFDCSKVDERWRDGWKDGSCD
Ecoli growth – E. coli growth inhibition. Escherichia coli growth, OD600, 23 h; active compounds read low. OD600 absorbance (test concentration not listed). 0.21% of 330,000 active. AID 1053175;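 active = OD600 absorbance below the run mean of sample wells minus 3.6 SD, in any replicate, cut at about 0.56 in these data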;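 note: stock transfer was 300 nL into about 60 µL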
Vif A3G – inhibitors of Vif binding to APOBEC3G peptide, primary screen, biochemical, TR-FRET, GST-Vif 1-94, biotin-A3G peptide, dose response retest (AID 1117319); TR-FRET GST-Vif / biotin-A3G peptide binding; higher % means a stronger effect; test concentration not given here; strong numbers were not always called active; one-dose inhibition, %; IC50 in µM for titrated hits; 0.57% of 260,000 active;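 active = above the screen mean plus three standard deviations and confirmed in dose response; inconclusive = results disagree or hit not tested in dose response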;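 note: Vif residues 1-94 fused to GST binding biotinylated APOBEC3G peptide 110-148; 0% = full assay without inhibitor and 100% = GST in place of GST-Vif; retest series ran down from 100 µM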
FGF22 binding – shifts melting point of recombinant human FGF22; recombinant FGF22 thermal shift, SYPRO orange fluorescence; percent of sucrose octasulfate shift, DMSO zero; calls only at 9.99 µM; 1.5% of 340,000 active;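 active = melting point raised past a set limit in the mean and every replicate; inconclusive = no clear call; three in four hits are not shown here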
Target sequence (Q9HCT0 whole entry, looked up): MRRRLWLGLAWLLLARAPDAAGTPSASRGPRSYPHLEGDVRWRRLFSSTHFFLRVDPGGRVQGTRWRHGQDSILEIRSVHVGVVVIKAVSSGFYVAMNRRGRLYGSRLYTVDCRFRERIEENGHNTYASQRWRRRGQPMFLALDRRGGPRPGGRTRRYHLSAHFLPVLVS
HNF4A DNA FP – change in binding of human HNF4 alpha to DNA | P41235 | HNF4a-FITC DNA binding, fluorescence polarization, 1 h | activity change, % at 10 µM | 0.3% of 360,000 active; in the data active = activity change above about 30%, passing the limit was not always enough;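 note: controls were the assay level and a saturating level of protein; the project sought stronger binding though the title names inhibitors; some compounds called inactive have numbers as strong as hits; positive values seem to mean higher polarization but the record does not say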
Target sequence (P41235 whole entry, looked up): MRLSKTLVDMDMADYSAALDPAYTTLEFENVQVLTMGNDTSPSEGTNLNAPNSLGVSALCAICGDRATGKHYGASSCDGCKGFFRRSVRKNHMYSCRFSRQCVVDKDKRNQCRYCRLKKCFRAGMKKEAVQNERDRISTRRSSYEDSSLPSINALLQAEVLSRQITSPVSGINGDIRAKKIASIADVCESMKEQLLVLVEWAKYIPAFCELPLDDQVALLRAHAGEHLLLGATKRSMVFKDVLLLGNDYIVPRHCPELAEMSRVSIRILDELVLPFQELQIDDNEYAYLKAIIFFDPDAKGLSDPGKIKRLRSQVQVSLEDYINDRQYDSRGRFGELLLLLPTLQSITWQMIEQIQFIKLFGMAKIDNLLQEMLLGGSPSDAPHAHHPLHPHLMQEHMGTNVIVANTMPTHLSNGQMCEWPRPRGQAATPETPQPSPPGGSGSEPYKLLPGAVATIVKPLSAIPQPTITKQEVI
Ecoli rRNA inh OD600 – also measured in Ecoli rRNA inh; calls as there; OD600 change, %; measured here: OD600 growth;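 optical density of the mix in the first replicate; 0 = DMSO median and -100 = no signal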
Ecoli rRNA inh RFP – second read-out of Ecoli rRNA inh, no call of its own (marks repeat the call); RFP signal change, %; measured here: RFP humanized mutant strains;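 first replicate; 0 = DMSO median and -100 = no signal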
Active calls of the source: *; i = inactive; ? = inconclusive; . = no result given; & = joins results of further samples.

SMILES	Ecoli rRNA inh	Ecoli rRNA inh OD600	Ecoli rRNA inh RFP	AF4-AF9 inh	ALR inh	Ecoli growth	Vif A3G	FGF22 binding	HNF4A DNA FP
C[C@@H]1CCCCO[C@H](CN(C)Cc2ccc(C(F)(F)F)cc2)[C@H](C)CN([C@@H](C)CO)C(=O)c2cc(NC(=O)Nc3ccc(F)cc3)ccc2O1	-3	4	3.5	1.0	.	.	.	i	.
COc1cc(-c2nc(-c3ccccc3)c(-c3cc([N+](=O)[O-])ccc3C)[nH]2)cc(OC)c1OC	.	.	.	.	-1	0.72	15%	.	3.5
COc1cccc(C(=O)Nc2ccc3c(c2)C(=O)N(C)[C@H]2CC[C@@H](CC(=O)NCCCN4CCOCC4)O[C@@H]2CO3)c1	5	17	-1.4	-2.1	.	.	.	i	.
COc1ccc(Br)cc1CN(C)C(=O)C1CC(=O)N(C2CCCC2)C1 (stereo not drawn)	-6	-7	2.7	-0.4	-10	0.66	3%	i	-1.0
O=[N+]([O-])c1ccc(Sc2cccc3cccnc23)c([N+](=O)[O-])c1	4	15	2.1	-6.4	-2	0.61	5%	i	-3.8
CC(C)CCN1CCNC(=O)C1CC(=O)N(C)CCCN1CCOCC1 (stereo not drawn)	4	-2	-1.9	-12	-31	0.67	.	i	-5.1
Cc1ccc(C(=O)OCC(=O)Nc2nc(-c3ccccc3)cs2)cc1NC(=O)c1ccco1	-14	2	6.6	0.8	6	0.71	-7%	i	0.4
O=C(COc1nncc2ccccc12)Nc1ccc(Br)cc1F	3	6	-4.1	-0.2	-7	0.61	-16%	.	4.7
O=C(Cn1nc(C(F)F)cc1C1CC1)NCCC1=CCCCC1	-21	-22	-1.8	.	-9	0.64	-1%	.	0.8
O=C(COC(=O)Cc1ccsc1)NCc1ccc(Cl)cc1	1	-1	-0.5	-4.5	5	0.69	.	i	0.5

Just Ecoli rRNA inh OD600 and ALR inh, for 3 of the compounds above:
compound,Ecoli rRNA inh OD600,ALR inh
O=[N+]([O-])c1ccc(Sc2cccc3cccnc23)c([N+](=O)[O-])c1,15,-2
COc1ccc(Br)cc1CN(C)C(=O)C1CC(=O)N(C2CCCC2)C1 (stereo not drawn),-7,-10
O=C(COC(=O)Cc1ccsc1)NCc1ccc(Cl)cc1,-1,5

The listing picks up with the 2 entries that preceded the break.
SMILES	Ecoli rRNA inh	Ecoli rRNA inh OD600	Ecoli rRNA inh RFP	AF4-AF9 inh	ALR inh	Ecoli growth	Vif A3G	FGF22 binding	HNF4A DNA FP
O=C(Cn1nc(C(F)F)cc1C1CC1)NCCC1=CCCCC1	-21	-22	-1.8	.	-9	0.64	-1%	.	0.8
O=C(COC(=O)Cc1ccsc1)NCc1ccc(Cl)cc1	1	-1	-0.5	-4.5	5	0.69	.	i	0.5
CC1CCC(NC(=O)CCS(=O)(=O)c2ccc3c(c2)NC(=O)CS3)CC1 (stereo not drawn)	8	2	3.8	1.4	-9	0.68	.	i	0.5
O=C(O)Cn1c(SCCOc2ccccc2)nc2ccccc21	.	.	.	.	-9	0.69	-3%	.	5.5
CN1[C@H](C(=O)Nc2nccs2)[C@@H](CO)[C@@H]2Cn3c(ccc(-c4ccccc4F)c3=O)[C@@H]21	0	1	1.9	2.8	.	.	.	i	.
Cc1noc(C)c1NC(=O)N(C)C[C@H]1Oc2c(NS(=O)(=O)c3cccs3)cccc2C(=O)N([C@H](C)CO)C[C@@H]1C	1&20	10&11	-1.2&5.5	-4.3&-6.6	-2	.	.	i	1.0
COc1ccc2c(c1)cc(C(=O)N[C@H](C(=O)N1CCC(C(=O)O)CC1)C(C)C)n2C	5	6	0.4	-1.5	-5	0.68	-1%	i	1.7
C=CCn1c(CCNC(=O)c2cccs2)nnc1SCC(=O)Nc1cccc(C(C)=O)c1	.	.	.	.	-4	0.73	22%	.	-2.6
Cc1nn(C)c(C)c1/C=N/N=C1\CCC2C3CCc4cc(O)ccc4C3CCC12C (stereo not drawn)	.	.	.	.	-10	.	5%	.	-2.0
COc1ccc(C(C)=O)cc1CSc1ncccn1	1	-1	-3.9	0.8	44	0.7	-3%	.	2.6
Cc1cc(C)c(C(=O)CC(=O)c2ccccc2Cl)c(O)c1	-40	-59	-8.8	5.7	.	0.68	-8%	i	0.6
CCC(=O)Nc1ccc2c(c1)C(=O)N(C)C[C@@H](OC)[C@@H](C)CN(C(=O)c1ccccn1)[C@H](C)CO2	2	0	-0.2	?	.	.	.	i	.
Cc1ccc(S(=O)(=O)Nc2ccc3c(c2)C(=O)N([C@@H](C)CO)C[C@@H](C)[C@@H](CN(C)C(=O)NC(C)C)O3)cc1	3	4	1.4	-2.9	.	.	.	i	.
O=C(c1ccc(O)cc1)c1ccc(O)cc1O	-11	-11	-1.2	0.9	31	0.68	2%	i	-2.3
Cc1ccc(S(=O)(=O)NCC[C@H]2CC[C@@H](NC(=O)c3cnccn3)[C@H](CO)O2)cc1	1	-1	-2.6	-0.2	.	.	.	i	.
CSc1nnc(Cc2cc(=O)[nH]c(=O)[nH]2)n1-c1cc(C)ccc1C	.	.	.	.	-3	0.72	?	.	-0.2
COc1ccc(NC(=O)NC2CCN(C(C)C)CC2)c(OC)c1	.	.	.	.	-35	0.7	-2%	.	0.0
CCc1ccc[n+](-c2nc([O-])sc2C=O)c1	1	6	-0.3	-2.1	-11	0.67	3%	i	0.8
C[C@@H]1CN([C@@H](C)CO)S(=O)(=O)c2ccc(-c3cccc(F)c3)cc2O[C@@H]1CN(C)C(=O)c1cccc(F)c1	-9	-18	2.0	0.4	.	.	.	i	.
CSc1nc(-c2ccccc2)cc(C)c1C#N	12	9	1.3	-4.4	.	0.72	.	i	-1.8
C[C@H](CO)N1C[C@H](C)[C@H](CN(C)C(=O)NC2CCCCC2)Oc2c(NC(=O)Nc3ccc(F)cc3)cccc2C1=O	-5	-9	0.8	2.7	.	.	.	i	.
O=C(Nc1ccccn1)c1sc2cccc(F)c2c1Cl	7	11	-1.2	0.0	-16	0.74	-15%	i	3.0
CCC(=O)N1c2ccc(S(=O)(=O)NCCc3ccccc3)cc2CC1C (stereo not drawn)	-2	-17	-5.3	-2.7	1	0.69	.	i	1.1
Cc1nc(SCc2nc3c(O)cccc3[nH]2)c2oc3ccccc3c2n1	-7	10	-7.3	.	1	0.68	.	i	8.9
Cc1ccc(C)c(N2CCN(C(=O)CCc3nc(-c4ccccc4Br)no3)CC2)c1	-5	-10	-3.1	-2.9	.	0.71	1%	i	1.4
COCC(=O)Nc1ccc2c(c1)OC[C@H](C)N(Cc1ccccn1)C[C@@H](C)[C@H](OC)CN(C)C2=O	3	-5	1.3	0.1	.	.	.	i	.
O=C(COC(=O)c1cc(=O)[nH]c2ccccc12)NCc1cccc(Cl)c1	-2	-2	7.1	0.7	2	0.65	2%	i	3.7
CC(=O)c1cc(C#N)c(NCc2cc(-c3ccccc3)no2)nc1C	16	18	7.4	-1.2	-22	0.62	-85%	i	-1.3
c1cc(-n2cnnn2)ccc1NC1=NCCC1	.	.	.	.	-10	0.73	11%	.	0.8
C[C@@H]1CCCCO[C@@H](CN(C)CC2CCCCC2)[C@H](C)CN([C@@H](C)CO)C(=O)c2cc(NC(=O)Nc3ccc(C(F)(F)F)cc3)ccc2O1	-3	-14	13	0.3	.	.	.	i	.
Cc1ccc(N2C(=O)CC(N3CCc4ccccc43)C2=O)cc1Cl (stereo not drawn)	13	7	15	-1.5	36	0.71	-4%	i	2.5
COc1cccc(S(=O)(=O)Nc2ccc3c(c2)OC[C@@H](C)N(Cc2cc(F)ccc2F)C[C@@H](C)[C@H](OC)CN(C)C3=O)c1	-3	-10	2.1	1.4	.	.	.	i	.
COc1ccc(/C=C(/NC(=O)c2ccccc2OC)C(=O)Nc2ccc(C(=O)O)cc2)cc1	1	1	-2.5	-1.6	.	0.68	.	i	-1.8
COc1ccc(N2CCN(c3oc(-c4ccc(OC)c(OC)c4)nc3C#N)CC2)cc1	.	.	.	.	-7	0.7	5%	.	-0.7
Cc1ccc(S(=O)(=O)N[C@@H]2C=C[C@@H](CC(=O)O)O[C@@H]2CO)cc1	3	9	-0.9	-2.1	.	.	.	i	.
COC(=O)c1sc2cc(C(F)(F)F)cnc2c1-c1ccccn1	-4	2	-1.6	-2.8	-6	0.68	7%	i	1.6
Cc1ccc(-n2c(-c3cccc(C)c3)n[nH]c2=S)cc1	-10	-10	5.2	-4.4	14	0.71	-3%	i	-2.2
CCn1c(C)nc([N+](=O)[O-])c1Sc1ccc(F)cc1	6	1	1.0	2.7	47	0.67	10%	i	-1.8
Cc1ccc(S(=O)(=O)N2CCN(C(=O)c3c(-c4ccccc4)noc3C)CC2)cc1	10	14	0.5	1.6	-1	0.68	.	i	2.3
CC(=O)N1c2ccccc2C2CCCC[C@@H]21 (stereo partly drawn)	4	4	-0.2	2.7	-1	.	.	i	3.7
CC(C)C(C(=O)NCc1ccco1)N(C(=O)CNS(=O)(=O)c1ccc(Cl)cc1)C1CCCC1 (stereo not drawn)	.	.	.	.	-7	0.75	?	.	0.8
CCOc1ccc(-c2csc(NC(=O)c3ccc(S(=O)(=O)N4CCc5ccccc5C4)cc3)n2)cc1	.	.	.	.	-25	0.75	-1%	.	6.6
COc1ccc(-c2cnc3c(c2)C(=O)N([C@H](C)CO)C[C@H](C)[C@H](CN(C)S(=O)(=O)c2cccs2)O3)cc1	1	15	-3.8	1.1&-0.8	.	.	.	i	.
Cc1csc(NC(=O)CSc2ncn(-c3ccccc3)n2)n1	.	.	.	.	-7	0.74	6%	.	0.7
Cc1ccc(OCC(=O)NCCCNC(=O)c2ccccn2)cc1	-4	-4	-2.0	6.2	4	0.69	.	i	-0.4
CC1CN(c2nc3c(c(=O)n(C)c(=O)n3C)n2Cc2c(Cl)cccc2Cl)CC(C)O1 (stereo not drawn)	6	-4	-7.3	-5.5	-22	0.72	.	.	-0.8
O=C(C[C@H]1C[C@H](C(=O)N2CCOCC2)[C@@]2(CCC3CCCC3)c3[nH]c4cc(-c5ccco5)ccc4c3CCN2C1=O)NCCC1=CCCCC1	.	.	.	.	.	0.73	2%	.	9.4
Cc1cc(C(=O)CSc2nc3ccccc3c(=O)[nH]2)c(C)n1CC1CCCO1 (stereo not drawn)	-2	-13	4.9	1.2	25	.	7%	i	6.5
CC(CNCCCn1ccc(NC(=O)OCc2ccccc2)nc1=O)c1ccccc1 (stereo not drawn)	6	0	7.2	5.8	.	.	-10%	i	-1.9
CCc1cccc2cc3c(N)c(C(=O)Nc4ccc(S(=O)(=O)N5CCCC5)cc4)sc3nc12	.	.	.	.	-2	.	-6%	.	13
O=C(COc1ccc([N+](=O)[O-])cc1Cl)NCC1CCCO1 (stereo not drawn)	6	8	-0.2	-2.2	-7	0.67	0%	i	-2.7
O=C(Nc1ncccn1)c1ccc([N+](=O)[O-])cc1	9	4	-4.6	-1.7	-30	0.72	-4%	i	1.5

Whole records, looked up by structure. Order of values: Ecoli rRNA inh	Ecoli rRNA inh OD600	Ecoli rRNA inh RFP	AF4-AF9 inh	ALR inh	Ecoli growth	Vif A3G	FGF22 binding	HNF4A DNA FP
O=C(COc1ccc([N+](=O)[O-])cc1Cl)NCC1CCCO1 (stereo not drawn) across the screens: 6	8	-0.2	-2.2	-7	0.67	0%	i	-2.7
COc1ccc(-c2cnc3c(c2)C(=O)N([C@H](C)CO)C[C@H](C)[C@H](CN(C)S(=O)(=O)c2cccs2)O3)cc1 across the screens: 1	15	-3.8	1.1&-0.8	.	.	.	i	.

These rows are one share of the data; the hit share may differ from the screen's.
